# PV pol inh – poliovirus RNA polymerase inhibition. 150,000 tested, 0.66% active. AID 588519. % elongation, % (compound at 16.7 µg/mL). poliovirus polymerase elongation, fluorescence polarization; active compounds read low. P03300; in the data active means % elongation below about 90%; further: some results filed as inactive read as strong as hits
# Target sequence (P03300 1749-2209 limits assumed): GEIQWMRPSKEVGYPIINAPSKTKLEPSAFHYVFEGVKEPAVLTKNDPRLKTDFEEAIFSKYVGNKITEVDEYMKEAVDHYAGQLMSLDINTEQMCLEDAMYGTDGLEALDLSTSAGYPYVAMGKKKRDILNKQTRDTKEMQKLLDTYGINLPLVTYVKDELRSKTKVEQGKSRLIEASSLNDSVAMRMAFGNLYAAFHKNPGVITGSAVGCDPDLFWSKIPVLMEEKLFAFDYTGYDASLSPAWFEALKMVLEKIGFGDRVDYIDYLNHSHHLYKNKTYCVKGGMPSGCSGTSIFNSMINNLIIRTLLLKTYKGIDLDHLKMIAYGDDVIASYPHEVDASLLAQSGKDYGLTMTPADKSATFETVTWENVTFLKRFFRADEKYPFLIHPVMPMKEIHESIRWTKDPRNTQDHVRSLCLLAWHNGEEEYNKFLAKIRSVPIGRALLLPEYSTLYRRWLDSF
# MbtI inh – inhibitors of Mycobacterium tuberculosis siderophore enzyme MbtI. P9WFX0. purified MbtI enzyme, fluorescence intensity read-out. inhibition, %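 (about 17 µg/mL by stock and volumes)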. 100,000 tested, 0.89% active. AID 493033;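 active means above 50% in both replicates, above 80% if mildly self-fluorescent; inactive means the rest, strongly fluorescent compounds included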;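 further: 0% = mean of negative and 100% = mean of positive controls; one replicate is shown; some compounds called inactive have numbers as strong as hits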
# Target sequence (P9WFX0 whole entry, looked up): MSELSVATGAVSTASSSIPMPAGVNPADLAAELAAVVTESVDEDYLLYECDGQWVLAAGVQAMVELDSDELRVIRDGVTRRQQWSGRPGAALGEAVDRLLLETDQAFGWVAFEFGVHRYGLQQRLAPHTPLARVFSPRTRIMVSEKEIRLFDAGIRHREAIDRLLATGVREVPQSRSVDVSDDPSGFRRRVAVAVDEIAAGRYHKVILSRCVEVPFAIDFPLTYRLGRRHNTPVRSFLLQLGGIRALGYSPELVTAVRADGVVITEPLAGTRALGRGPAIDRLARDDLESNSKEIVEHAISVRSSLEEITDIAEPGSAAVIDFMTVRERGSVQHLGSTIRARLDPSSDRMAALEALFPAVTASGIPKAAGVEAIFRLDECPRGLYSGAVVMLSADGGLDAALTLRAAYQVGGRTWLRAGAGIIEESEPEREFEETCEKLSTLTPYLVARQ
# Mtb MenB inh – Mtb MenB enzyme inhibition; P9WNP5; 100,000 tested, 0.43% active; AID 540299; inhibition, %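 (about 12 µg/mL by stock and volumes)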; MenB enzyme assay, absorbance read-out; some hits fall short of the stated cut;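 active means mean of two replicates above 30%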;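 further: 0% = no compound and 100% = wells with inactive enzyme; the first replicate is given; strong numbers were not always called active; inactives centre near -10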
# PV pol inh intensity – second read-out of PV pol inh, no call of its own (marks repeat the call); % elongation; measured here: total intensity read-out; formula for this scale not given here;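 total fluorescence in place of polarization; lower means less elongation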
# Numbers without * were called inactive; / = not tested or not shown. This is a random part of the collection (roughly 1.7% active in at least one column).
SMILES,PV pol inh,PV pol inh intensity,MbtI inh,Mtb MenB inh
CCOC(=O)c1sc(N)c(C#N)c1COC(=O)C1CC(=O)N(c2ccccc2OC)C1 (configuration not stated),45,246,4,-7
CCOc1nnc(NS(=O)(=O)c2ccc(N=Cc3ccccc3O)cc2)s1,101,105,/,-14
CNS(=O)(=O)c1cc(Cl)ccc1Sc1ccccc1C(=O)O,104,101,-8,-16
O=C(Nc1nc(-c2ccc3c(c2)OCCO3)cs1)c1ccc(Br)s1,103,103,16,-26
Cc1[nH]c2ccccc2c1C(=O)CSc1ccc(Cl)cc1,102,106,52,-27
N#CCc1nc2ccccc2[nH]1,100,103,-4,/
CCS(=O)(=O)n1nc(-c2ccco2)nc1SC,96,88,82*,-14
Cc1c(-c2cccc(NC(=O)C(C)(C)Oc3ccc(Cl)cc3)c2)nc2ncccn12,103,99,108,-17
Cc1ccc(/C=C2\SC(=O)N(CCNC(=O)c3ccc(OCc4c(C)noc4C)cc3)C2=O)cc1,108,111,0,-31
COc1ccccc1NC(=O)N1CCCSC1=NC1CCCCC1,102,113,-3,-40
Cc1ccc(-c2nc3cc(N=Cc4ccccc4O)ccc3o2)cc1,100,106,-45,-11
COc1ccc2oc(C(=O)OCc3cc(=O)n4c(C)csc4n3)c(C)c2c1,105,107,-5,-20
COC(=O)C1=C(C)C(c2ccc(OC)cc2)NC(=O)N1 (configuration not stated),105,104,/,-1
O=C(CCn1ccc2cc(S(=O)(=O)N3CCCC3)ccc21)NCc1ccccc1,103,102,-18,3
N#Cc1nc(COc2ccc(Cl)cc2)oc1NCc1ccco1,102,105,0,20
O=C(CSc1ccc(F)cc1)NC(=O)C1CCCCC1,103,107,5,-7
O=c1cc(O)c2sc3nc4c(cc3c2[nH]1)CCCC4,101,104,-32,-244
COc1ccc(C2C3=C(CC(C)(C)CC3=O)Nc3[nH]c(=O)[nH]c(=O)c32)cc1 (configuration not stated),98,94,/,-9
Cc1cccc(N(C)S(=O)(=O)c2ccc3c(c2)CCN3C(=O)C2CC2)c1,103,108,-11,-7
Cc1ccc(C(O)(C(=O)NN2CCOCC2)c2ccc(C)cc2)cc1,102,98,-12,-4
CCC(CC)NC1CCCCC1OC (configuration not stated),99,101,0,7
O=C(O)/C=C/c1cccc(N=NN2CCCCC2)c1,103,103,22,6
Cc1ccc(C)c(N2N=C(C(=O)N3CCN(c4ccccc4F)CC3)CCC2=O)c1,102,103,-4,7
COc1cccc(NC(=O)N2CCC(O)(c3ccc4c(c3)OCO4)CC2)c1,103,101,2,23

# Some values from the entries so far:
# MbtI inh result of COc1cccc(NC(=O)N2CCC(O)(c3ccc4c(c3)OCO4)CC2)c1 stands at 2
# Mtb MenB inh result of Cc1ccc(C)c(N2N=C(C(=O)N3CCN(c4ccccc4F)CC3)CCC2=O)c1 stands at 7

# A different layout for part of the listing above:
CCOc1nnc(NS(=O)(=O)c2ccc(N=Cc3ccccc3O)cc2)s1
  PV pol inh: 101 | PV pol inh intensity: 105 | MbtI inh: / | Mtb MenB inh: -14
CNS(=O)(=O)c1cc(Cl)ccc1Sc1ccccc1C(=O)O
  PV pol inh: 104 | PV pol inh intensity: 101 | MbtI inh: -8 | Mtb MenB inh: -16
O=C(Nc1nc(-c2ccc3c(c2)OCCO3)cs1)c1ccc(Br)s1
  PV pol inh: 103 | PV pol inh intensity: 103 | MbtI inh: 16 | Mtb MenB inh: -26
Cc1[nH]c2ccccc2c1C(=O)CSc1ccc(Cl)cc1
  PV pol inh: 102 | PV pol inh intensity: 106 | MbtI inh: 52 | Mtb MenB inh: -27

# Additional compounds.
SMILES,PV pol inh,PV pol inh intensity,MbtI inh,Mtb MenB inh
NC(=S)COc1ccccc1,104,96,-1,-18
CCOC(=O)N1CCN(CC(O)c2ccc3c(c2)CCN3C(C)=O)CC1 (configuration not stated),104,108,-10,-17
CCOC(=O)c1sc(N(Cc2ccccc2)C(=O)COC(=O)c2cccn2C)nc1C,/,/,-8,0
CCOC(=O)Cc1c(C)nc2c(-c3ccccc3)cnn2c1C,104,105,6,/
COc1ccc(CNCc2ccncc2)cc1,107,114,/,1
COc1cc2c(C(=O)NCCCN3CCN(C)CC3)cn(CC(C)C)c(=O)c2cc1OC,100,104,-7,-15
OCn1nnn(-c2ccccc2)c1=S,96,108,18,-11
CC(=O)Nc1ccc2c(c1)CN(Cc1ccc(Cl)cc1)CO2,101,104,-12,-7
CCN(CC)c1ccc(/C=C2\N=C(SC)SC2=O)cc1,73,195,9,-16
CC1(c2ccccc2)CC(n2c3ccccc3c3ccccc32)=NC(SCC(=O)O)=N1 (configuration not stated),108,118,/,-20
CCOc1ccc(-n2c(SCC(=O)NCc3ccco3)nc3c(c2=O)SCC3)cc1,100,101,-1,-4
CC(C)NC(=O)CCCn1c(=O)c2cccn2c2ccccc21,96,92,-3,-16
CCOc1ccc(CCN2CN(CC)CNC2=S)cc1OCC,101,102,-13,-17
CCn1c2ccccc2c2cc(CN3CCC(N4CCCCC4)CC3)ccc21,101,105,35,5
O=C(/C=C/c1cccc(C(F)(F)F)c1)OCC(=O)c1ccc(Cl)s1,101,102,-2,/
Nn1c(SCC(=O)NC2CCCC2)nnc1-c1ccc(Cl)cc1Cl,101,100,-7,-8
O=c1c2ccccc2nnn1-c1ccc(Br)cc1,99,93,1,7
Cc1ccc(NC(=O)CSc2nc3ncnc(N)c3[nH]2)c(C)c1,101,103,8,-2
Cc1cccc(NC(=O)N2CCC(C)CC2)c1C,101,103,3,-11
COCC(=O)Nc1cc(Sc2ccccc2)ccc1N=C(NC(C)=O)NC(C)=O,107,109,/,-22
CCCCNC(=O)C1CCCN(S(C)(=O)=O)C1 (configuration not stated),103,102,-9,-25
Cc1ccc(C(=O)N(C)S(=O)(=O)c2ccc(C)cc2)cc1,101,106,-11,/
CC(C#N)OC(=O)CSc1nnc(-c2ccccc2F)n1-c1ccccc1 (configuration not stated),96,102,16,7
COC1CC(O[C@H]2[C@H](C)[C@@H](OC3OC(C)CC(N(C)C)C3O)[C@@H](C)C[C@]3(CO3)C(=O)[C@H](C)[C@@H](O)[C@@H](C)[C@@H](C)OC(=O)[C@@H]2C)OC(C)C1O (some centres not stated),100,100,0,-8
C1=CCC(CNCCCN2CCOCC2)CC1 (configuration not stated),104,102,1,-34
O=C(O)c1cccc(NCC2SC(=S)NC2=O)c1 (configuration not stated),95,101,109,-7
Cc1nc(C)c(C(=O)Nc2nnc(C3CCCO3)s2)s1 (configuration not stated),105,104,-9,-8
Cc1ccc(NNC(=S)NC(=O)C2CC2)c(C)c1,100,89,95*,-55
CC(=O)OC(C)C1CCC2C3CC[C@H]4CC(=O)CCC4(C)C3CCC12C (some centres not stated),102,123,-10,8
CC1CCCCC1NC(=O)CSc1nnc(-c2cccs2)n1-c1ccccc1 (configuration not stated),102,112,-9,2
Cn1/c(=N/N=C2\CCc3ccccc32)sc2ccccc21,96,93,-2,-3
CCCC(=O)N1CCCC(c2nc(-c3ccc(OC)cc3)no2)C1 (configuration not stated),106,102,-4,-60
Nc1nnc(SCC(=O)N2CCCCC2)n1CC(=O)N1CCCCC1,99,103,-3,-24
CS(=O)(=O)/C(C#N)=C/Nc1ncccn1,102,104,29,-15
Cc1ccc(C(=O)NCC(C)(C)N2CCOCC2)s1,104,110,-25,-9
COc1cc2c(C#N)c(N3CCN(S(=O)(=O)c4ccc5c(c4)OCCO5)CC3)nc(N)c2c(N)n1,111,109,-192,-3

# Record cards (already shown):
# CC(=O)OC(C)C1CCC2C3CC[C@H]4CC(=O)CCC4(C)C3CCC12C (some centres not stated) as listed: PV pol inh: 102; PV pol inh intensity: 123; MbtI inh: -10; Mtb MenB inh: 8
# CC(C)NC(=O)CCCn1c(=O)c2cccn2c2ccccc21 as listed: PV pol inh: 96; PV pol inh intensity: 92; MbtI inh: -3; Mtb MenB inh: -16

# Other entries
SMILES,PV pol inh,PV pol inh intensity,MbtI inh,Mtb MenB inh
Cc1ccc(-n2c(C)c3c(C)nnc(C)c3c2C)cc1C,100,102,-26,0
COc1ccc(C(=O)N2C3C=CC(C3)C2(C(F)(F)F)C(F)(F)F)cc1 (configuration not stated),100,103,-6,3
COc1ccc(C(N)c2nccc3cc(OC)c(OC)cc23)cc1OC (configuration not stated),103,102,/,-64
FC(F)(F)c1cc(-c2noc(C3CCc4ccccc4O3)n2)cc(C(F)(F)F)c1 (configuration not stated),104,103,-6,7
CCNc1nc(SCc2ccc(Cl)cc2)nc2sc3c(c12)CCN(C)C3,106,142,14,-14
COC(=O)C1=C(N)Oc2cc(C)oc(=O)c2C1c1cccnc1 (configuration not stated),100,100,-6,-4
COc1ccc(S(=O)(=O)N(C)C)cc1,106,111,/,-20
COCCN1C(=O)N(c2cccc(C)c2)C(=O)C1CC(=O)Nc1cccc(F)c1 (configuration not stated),102,104,-11,9
O=C1CN(C(=O)CSCc2cc(=O)n3c4c(sc3n2)CCCC4)c2ccccc2N1,111,118,-5,-3
CC(/C=C/c1ccccc1)=N\Nc1nc2c(c(=O)[nH]c(=O)n2C)n1CC(O)COC(C)C (configuration not stated),104,102,-4,10
COc1ccccc1C(=O)COC(=O)COc1ccc(C#N)cc1,/,/,-21,-3
Cc1ncc2c(N)ncnc2n1,101,104,-1,-13

# By substructure: the entries above with bromine
SMILES,PV pol inh,PV pol inh intensity,MbtI inh,Mtb MenB inh
O=C(Nc1nc(-c2ccc3c(c2)OCCO3)cs1)c1ccc(Br)s1,103,103,16,-26
O=c1c2ccccc2nnn1-c1ccc(Br)cc1,99,93,1,7

# Additional structures follow.
SMILES,PV pol inh,PV pol inh intensity,MbtI inh,Mtb MenB inh
C=CCNc1nnc(SCC(=O)NC(=O)c2ccccc2OC)s1,99,90,3,-5
CCOC(=O)C1CCC(CNCc2ccc(OC)cc2)CC1 (configuration not stated),104,102,-3,-9
CCOC(=O)N1CCC(NS(=O)(=O)c2ccc3oc(=O)c4ncn(CC)c4c3c2)CC1,102,100,-3,2
C=C(C)c1cccc(C(C)(C)NC(=O)Nc2ccc3[nH]c(=O)[nH]c3c2)c1,98,105,13,1
O=c1oc2ccccc2n1Cc1cc2c(cc1Br)OCO2,102,105,-16,-6
CC(C)C1Cc2c(sc3nc(SCC(=O)Nc4ccccc4)nc(N)c23)CO1 (configuration not stated),103,105,10,-13
O=C(c1cc2ccccc2o1)N(CC1CCCO1)c1nc2ccccc2s1 (configuration not stated),109,113,-9,-4
C(=C/c1ccccc1)/CN1CCN(Cn2nnc3ccccc32)CC1,102,115,/,-9
CN1/C(=C\C(=O)CSc2ncn[nH]2)C(C)(C)c2ccccc21,103,101,-19,-64
Cc1ccc(-n2c(=O)[nH]cc(C(=O)N3CCc4ccccc43)c2=O)cc1,101,104,-2,-8
Cc1nc(=O)c(-c2ccccc2)c(C)n1-c1ccccc1O,101,102,-1,11
O=C(CC(NCCC1=CCCCC1)C(=O)O)Nc1ccccc1Cl (configuration not stated),105,104,-13,-17
Cc1ccc(C(=O)NC(C)(C)C)cc1,101,104,-1,-3
COC(=O)/C(=C(/O)CSc1nnc(COc2ccccc2Cl)n1C)c1nc2ccccc2[nH]1,94,95,22,1
NC(=O)NCc1ccc(C(=O)O)cc1,103,103,10,-26
CCc1ccc(NC(=O)COC(=O)CN2C(=O)COc3ccccc32)cc1,104,94,9,-15
COc1ccc(-n2nnc3c(SCC(=O)NCC4CCCO4)ncnc32)cc1 (configuration not stated),99,99,1,-28
CCOC(=O)c1cnc(-c2ccccc2)nc1Nc1ccc(C)cc1,103,103,-6,-8
Cc1cc(SCc2ccccn2)nc(=O)[nH]1,106,109,15,-7
C=CCNC(=O)c1cc(-c2ccccn2)nc2ccccc12,98,109,1,6
Cc1c(C(=O)NCc2cccnc2)oc2ccc3c(c12)C(O)CC1(CCCCC1)O3 (configuration not stated),100,104,112,1
CC(C)OP(C)(=O)CN1CCN(CP(C)(=O)OC(C)C)CC1 (configuration not stated),99,103,-16,-5
CCc1sc(-c2nnc(CN3CCN(S(=O)(=O)c4ccc5c(c4)CCC5)CC3)o2)cc1C,105,113,7,-20
Clc1ccc(CSCc2nc3ccccc3[nH]2)cc1,104,102,-5,-20
CCCC(=O)Nc1cc(C(=O)O)ccc1S(=O)(=O)c1ccc(Cl)cc1,98,103,4,10
Cc1nc(-c2ccccc2)nc(OC(=O)N(C)C)c1Oc1ccc(Cl)cc1Cl,100,100,-8,10
CN=C(c1ccccc1)N1CCN(c2ccc(OC)cc2)CC1,101,106,-1,-4
COc1ccc(-c2noc(N(C)CC(=O)Nc3cccc(OC)c3)n2)cc1,103,105,-9,-17
NC(=O)c1c(NC(=O)CCN2C(=O)S/C(=C\c3cccs3)C2=O)sc2c1CCC2,103,109,-13,-17
COC(=O)COc1ccc2oc(=O)cc(-c3cc4ccccc4o3)c2c1,100,105,0,-3
N#CC(C#N)=Cc1ccc(OCC(O)Cn2c3ccccc3c3ccccc32)cc1 (configuration not stated),102,100,-7,-16
O=C(CCCC(=O)c1ccccc1)Nc1ccc(Cl)cn1,104,104,-1,-5
O=C(NC(CO)CCO)c1ccccc1 (configuration not stated),101,102,-10,3
CC1CCCCN1CCCNC(=O)Cn1cccc1C(=O)c1ccccc1 (configuration not stated),104,108,-6,-5
CCc1ccccc1-n1c(SCc2cc(=O)n3ccccc3n2)nc2[nH]ncc2c1=O,99,100,-21,-24
Cc1ccc(CC(=O)OCC(=O)Nc2c(C#N)c(C)c(C)n2Cc2ccco2)cc1C,105,108,-14,-13
COc1ccc(N2CCC(CNS(=O)(=O)c3cccc(C(F)(F)F)c3)C2)cc1 (configuration not stated),104,106,-2,-3
c1cncc(-c2nc3ccc4ccccc4c3c3c2CCCC3)c1,98,102,12,5

# Screens (PubChem BioAssay)
